Source: PubChem BioAssay
STK33 inh – inhibitors of purified STK33 kinase, primary screen, biochemical, ADP-Glo luminescence, homogeneous, cell-free | MBP phosphorylation | inhibition, % at 10 µM | 320,000 tested, 0.073% active;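 active = inhibition at or above 25%, using the most active replicate where run in duplicate; inactive = inhibition below 25%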
Target sequence (Q9BYT3 whole entry, looked up): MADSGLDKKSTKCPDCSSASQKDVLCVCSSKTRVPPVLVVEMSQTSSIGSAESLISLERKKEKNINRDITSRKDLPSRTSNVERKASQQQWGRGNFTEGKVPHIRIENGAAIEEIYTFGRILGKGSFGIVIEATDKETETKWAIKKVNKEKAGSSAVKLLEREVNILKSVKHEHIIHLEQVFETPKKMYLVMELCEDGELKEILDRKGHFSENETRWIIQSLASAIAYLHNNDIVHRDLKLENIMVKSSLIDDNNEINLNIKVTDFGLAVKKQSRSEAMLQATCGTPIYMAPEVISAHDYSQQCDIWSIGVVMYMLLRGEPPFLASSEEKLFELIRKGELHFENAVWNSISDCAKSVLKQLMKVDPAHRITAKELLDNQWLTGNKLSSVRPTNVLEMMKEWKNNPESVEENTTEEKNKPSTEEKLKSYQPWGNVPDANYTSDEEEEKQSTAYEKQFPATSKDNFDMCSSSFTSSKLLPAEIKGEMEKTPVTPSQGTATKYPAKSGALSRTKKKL
Starred values were filed as active, the others as inactive; & = joins results of further samples. Some of the compounds tested; most or all hits stand in other tables.

compound	STK33 inh
CC1(C)CC(=O)C(C2C3=C(CC(C)(C)CC3=O)Oc3ccccc32)C(=O)C1 (configuration not stated)	-1.2
Cc1ccc(/C(O)=C2\C(=O)C(=O)N(C)C2c2ccccc2[N+](=O)[O-])cc1 (configuration not stated)	0.3
O=C1CC2(CCCCC2)Oc2ccccc21	-0.7
Cc1ccc(C(=O)Nc2cccc(C(F)(F)F)c2)cc1NC(=O)c1nccnc1N	-0.5
CCC(C)(C)NC(=O)c1cc(OC)c(OC)cc1[N+](=O)[O-]	-1.1
CC(=O)c1ccc(NC(=O)c2ccc(C)c(Br)c2)cc1	0.4
Cc1ccc(NC(=O)[C@@H](NC(=O)c2cccc(S(=O)(=O)N3CCOCC3)c2)C(C)C)cc1C	-1.6
COc1ccc(OC)c2c(C)cc(N3CCN(C(=O)c4ccc(C)cc4)CC3)nc12	0.0
CN1C(=O)S/C(=C\c2ccc(-n3cncn3)cc2)C1=O	-1.4
O=C(O)c1cccc(NC(=S)NC(=O)C(c2ccccc2)c2ccccc2)c1	-3.6
Cc1cc(=O)n2[nH]c(-c3sccc3-n3c(C)ccc3C)cc2n1	-0.2
CSc1nc(C)cc(Oc2ccc(OCC(N)=O)nn2)n1	-1.4
Cc1ccc(-c2ccc(=O)n(CCC(=O)N3CCN(c4ccccc4)CC3)n2)cc1	3.5
Cc1ccc(-c2csc3nnc(SCC(=O)NCc4ccco4)n23)cc1	-1.3
COc1ccc(CC(=O)N/N=C/C=C/c2cccc([N+](=O)[O-])c2)cc1OC	-0.5
C/C(=N\NC(=O)c1cccc(Cl)c1)c1cccc(NC(=O)c2ccco2)c1	0.9
Cc1nn(CCOc2cccc(Cl)c2)c(C)c1[N+](=O)[O-]	0.7
Cc1c(C(=O)O)cccc1N1C(=O)Nc2ccccc2N1O	-1.9
Cc1cc(-c2nc(C)c(C(=O)NN)s2)no1	0.5
CC(=O)Oc1ccc(C(=O)Nc2nnc(C)s2)cc1	-0.8
CCCOc1ccc(C(=O)Nc2ccc(S(=O)(=O)Nc3onc(C)c3C)cc2)cc1	2.1
O=C(CN1C(=O)CCSc2ccc(S(=O)(=O)N3CCCC3)cc21)Nc1ccccc1Cl	1.5
COc1cccc(CN2C(=O)C(C)Oc3ccccc32)c1 (configuration not stated)	-0.2
Cc1cnc(NC(=O)C2(c3ccccc3)CC2)s1	-1.5
Cc1ccc(CCP(=O)(O)CN2CCOCC2)cn1	-0.2
O=C(Nc1ccc(Oc2ccccc2)cc1)c1cnc2n(c1=O)CCS2	-0.8
O=C(c1cccc(S(=O)(=O)N2CCCC2)c1)c1cccc(S(=O)(=O)N2CCCC2)c1	-0.5
CCOC(=O)c1cc(OC(=O)c2ccccc2OC)n(-c2ccccc2)n1	0.0
CN(Cc1cccc(C(F)(F)F)c1)C(=O)C1CCC(=O)N(CC2CCCCC2)C1 (configuration not stated)	0.6
CCCCn1c(SCC(=O)c2ccc(OC)c(OC)c2)nc2cc(S(N)(=O)=O)ccc21	-1.8
Cc1ccc(C(=O)NCC(=O)OCC(=O)Nc2ccc3[nH]c(=O)[nH]c3c2)cc1	0.4
COc1ccc(NS(=O)(=O)c2cc(N)ccc2N2CCOCC2)cc1	-0.2
COc1ccc(C(=O)NCCc2nnc(SCc3nc4ccccc4c(=O)[nH]3)n2C)cc1	-1.5
O=C(C1CCN(Cc2ccc(F)cc2)CC1)N(CCc1ccccc1)Cc1ccccc1	0.0
CCCC(=O)c1ccc(N2CCOCC2)c(F)c1	-1.3
O=C(NCC(c1ccco1)N1CCN(c2ccccc2F)CC1)OCc1ccccc1 (configuration not stated)	-0.3
Cc1ccc(C(=O)NNC(=O)c2ccc3ccccc3c2O)cc1	-1.6
Cc1ccc(C(C)C)c(OCC(=O)N2CCOCC2)c1	0.6
Cc1cc(NC(=O)c2cccs2)ncc1NC(=O)c1cccc(F)c1	2.9
Cc1ccc(NC(=O)C2CCN(S(=O)(=O)c3ccc4c(c3)NC(=O)C(C)S4)CC2)cc1Cl (configuration not stated)	-1.2
O=C(Nc1cccnc1)c1cc(-c2ccc(Cl)cc2)on1	-2.0
CC1=CC(C)(C)C(C(=O)O)C(C(=O)O)C1 (configuration not stated)	-0.1
Cc1ccc(OCCSc2nnc(-c3ccncc3)n2C)cc1	0.1
CCOC(=O)Cc1csc(NC(=O)Cc2ccc(Br)cc2)n1	-1.1
Cc1cc(SCC(=O)NC2CCCC2)nc2ccccc12	-1.3
COc1cc(OC)c(C(=O)Oc2ccc3c(c2)OCO3)cc1OC	-1.3
CCCc1nnc2n1N=C(c1ccc(OC)c(OC)c1)CS2	0.3
COc1ccc2[nH]c(=O)c(CN(Cc3cccnc3)C(=S)NCC3CCCO3)cc2c1 (configuration not stated)	-0.5
Cc1ccc2c(C)c(C(=O)Nc3cccnc3)oc2c1	0.1
Cc1ccc(C)c2[nH]c(=O)c(CN(Cc3ccco3)C(=S)NCC3CCCO3)cc12 (configuration not stated)	1.1

Four structures from above, ordered by heavy-atom count, ascending:
compound	STK33 inh
Cc1ccc2c(C)c(C(=O)Nc3cccnc3)oc2c1	0.1
Cc1ccc(C(=O)NCC(=O)OCC(=O)Nc2ccc3[nH]c(=O)[nH]c3c2)cc1	0.4
O=C(NCC(c1ccco1)N1CCN(c2ccccc2F)CC1)OCc1ccccc1 (configuration not stated)	-0.3
COc1ccc(C(=O)NCCc2nnc(SCc3nc4ccccc4c(=O)[nH]3)n2C)cc1	-1.5

Some of the entries above, reformatted.
CCOC(=O)c1cc(OC(=O)c2ccccc2OC)n(-c2ccccc2)n1
  STK33 inh: 0.0

CN(Cc1cccc(C(F)(F)F)c1)C(=O)C1CCC(=O)N(CC2CCCCC2)C1 (configuration not stated)
  STK33 inh: 0.6

Later entries:
compound	STK33 inh
CCOC(=O)NNC(=O)C1CCC(C)CC1 (configuration not stated)	-1.5
Cc1noc(C)c1C(=O)OCC(=O)Nc1c(F)cccc1F	-0.8
COc1cccc(NC(=O)CSc2nnc(COc3ccc4c(c3)CCCC4)o2)c1	-1.8
Cc1nc2ccccc2nc1OCC(=O)NCc1ccc2c(c1)OCO2	-0.4
CCOC(=O)C1CCCN1C(=O)c1ccc(OC)c(Br)c1 (configuration not stated)	-1.0
Cc1ccc(S(=O)(=O)n2nc(OC(=O)C3CCCCC3)cc2N)cc1	-0.3
CCN(CC)S(=O)(=O)c1ccc(N)cc1	-1.8
Cc1ccc(N/C=C/C(=O)c2ccccc2)cc1C	-0.8
O=S(=O)(c1ccccc1Cl)N1CCCC1c1nc(-c2cccc(Cl)c2)no1 (configuration not stated)	-1.2
CCn1cc(C(=O)N[C@H](C(=O)NCCCN2CCOCC2)C(C)C)c(=O)c2cc3c(cc21)OCO3	-1.7
O=C(Cc1cc(=O)[nH][nH]1)N/N=C/c1c(Cl)cccc1Cl	0.5&-1.0
Cc1ccccc1CSc1nnc(-c2ccccn2)n1N	-0.8
Cn1c(=O)c2sccc2n2c(CCCC(=O)N3CCN(c4ccccn4)CC3)nnc12	-1.1
Cc1cc(Nc2cccc(Cl)c2)nc(NCc2ccccc2)n1	1.2
O=C(O)c1ccc(COc2ccccc2/C=C2\NC(=O)N(Cc3ccc(F)cc3)C2=O)cc1	-0.4
CCn1cc(C(=O)N2CCCC(C(=O)c3ccc4ccccc4c3)C2)cn1 (configuration not stated)	-1.8
CCN(CC)C(=O)NC1CC(=O)N(c2ccc(OC)cc2)C1 (configuration not stated)	-1.6
O=[N+]([O-])c1cccc(-c2nnc(SCc3cccnc3)o2)c1	-0.8
CCOC(=O)c1cccc(NC(=O)CCc2nc(-c3ccccc3F)no2)c1	0.4
COC(=O)c1sc2nc(SCc3ccccc3C)n(N)c(=O)c2c1C	-1.2
COc1cccc(SCc2noc(C(=O)NCC3CC3)c2C(=O)NCC2CC2)c1	0.5
CCOC(=O)/C(C#N)=C/c1c(Oc2cccc(C)c2)nc2c(C)cccn2c1=O	0.7
COC(=O)c1ccc2c(=O)n(CCN3CCOCC3)c(SCC(=O)C(C)(C)C)nc2c1	-1.0
COc1ccc(NC(=S)/N=C(\N)Nc2nc(C)c3ccc(C)cc3n2)cc1	-1.2
CC1(C)CC(=O)C2=C(C1)Nc1cc(C(=O)c3ccccc3)ccc1NC2c1ccccn1 (configuration not stated)	-0.6

Remaining list, next part:
Structure	STK33 inh
Cc1ccccc1C(=O)N1CCC(C(=O)Nc2ccc(C(C)C)cc2)CC1	-0.8
COc1ccc(OC)c(CNC(=O)c2ccc(C)c(NC(=O)C3=C(C)OCCS3)c2)c1	-1.7
O=C(NC(=S)NCC1CCCO1)c1cccs1 (configuration not stated)	8.0
CC(C)Cc1nnc(NC(=O)CCC(=O)Nc2ccc(Cl)cc2)s1	-0.4
O=C(/C=C/c1ccccc1)Nc1ccc2c(c1)OCCO2	2.1
CN(Cc1ccco1)C(=O)C1CCN(c2nnc(-n3cccc3)s2)CC1	-1.6
Cc1ccc(S(=O)(=O)NNC(=O)CCC(=O)Nc2ccccc2)cc1	-1.9
Cc1cc(/C=N/n2cnnc2)c(C)n1-c1ccc(OCc2ccc(F)cc2)cc1	-0.8
COc1cc(C(=O)OCC(=O)NCc2ccc(F)cc2)ccc1OCC(C)C	-1.5
CCOc1ccc(OCC)c(NC(=O)c2[nH]c(C)c(C(C)=O)c2C)c1	-0.6
C=CCNC(=O)COc1ccc(S(=O)(=O)N2CCCC2)cc1	0.4
O=C(CC1C(=O)NCCN1Cc1ccc(F)cc1)NC1CCCCCCC1 (configuration not stated)	-0.3
COc1ccc(Cc2nc3ccc(S(N)(=O)=O)cc3[nH]2)cc1OC	1.2
COc1cc(NC(=O)CN2c3cccc4cccc(c34)S2(=O)=O)cc(OC)c1OC	-0.6
O=C(CNC(=S)NC(=O)c1ccco1)c1ccccc1	-2.5
O=C(CSc1ncnc2c1sc1ccccc12)Nc1ccc(Br)cc1	0.8
COC(=O)c1ccccc1NC(=O)CSc1nnc(-c2cccnc2)o1	2.5
FC(F)(F)c1cccc(Cc2noc(CN3CCCCC3c3ccccn3)n2)c1 (configuration not stated)	0.3
CCOC(=O)C1C(=O)OC2(CCCC2)C1C(=O)OCC (configuration not stated)	-2.3
Cc1cccc(-n2c(N)c(C(=O)NCCN3CCOCC3)c3nc4ccccc4nc32)c1	1.4
COc1ccc(OCCCC(=O)Nc2cccc([N+](=O)[O-])c2)cc1	-1.1
Cn1c(CCNC(=O)c2ccco2)nc2ccccc21	0.5
O=C(NC1CCSc2ccccc21)c1cccc(S(=O)(=O)N2CCOCC2)c1 (configuration not stated)	-0.6
CCO[C@H]1OC(C(=O)Nc2ccccc2)=C[C@@H](c2coc3ccccc3c2=O)[C@@H]1CCCO	0.8
Cc1cccc2cc(C#N)c(SCC(=O)NCc3cccs3)nc12	5.4
Nc1c(C(=O)OCC(=O)Nc2ccc(Cl)cc2[N+](=O)[O-])[nH]c(=O)[nH]c1=O	-0.3
O=C(COc1ccc(-c2ccccc2)cc1)N1CCN(C(=O)c2cccnc2)CC1	-0.3
COCc1cc(C)nc(OCC(=O)N/N=C/c2ccc(-c3cc([N+](=O)[O-])ccc3Cl)o2)c1C#N	2.9
CCCNC(=O)c1cc(OC)c(OC)cc1[N+](=O)[O-]	-2.0
O=C(c1ccc(S(=O)(=O)Cc2ccccc2F)c([N+](=O)[O-])c1)N1CCCCCC1	-0.2
Cc1c(C)c2ccc(OCC(=O)Nc3cccnc3)cc2oc1=O	-0.4
COCCNc1nc(SCC(=O)N2CCN(c3ccccc3)CC2)nc2ccccc12	-0.5
COc1ccccc1/C=N/NC1=NCCCCC1	-0.7
O=C(c1ccc(Cl)c(S(=O)(=O)N2CCOCC2)c1)N1CCOCC1	1.3
CCC(C(=O)Nc1c[nH]c(=O)[nH]c1=O)c1ccccc1 (configuration not stated)	-1.6
CCCS(=O)(=O)N1CCCC(C(=O)NCCc2ccc(Cl)cc2)C1 (configuration not stated)	0.9
O=C1CCC(C(=O)Nc2cccc(Oc3ccccc3)c2)=NN1	-0.2
N=c1ccn(Cc2c(Cl)cccc2Cl)cc1	-2.2
CC(C)(C)c1ccc2c(c1)N(CC(=O)N1CCCC1)C(=O)CO2	-2.6
Cc1csc(SCC(=O)N(C)CC(=O)Nc2ccccc2Cl)n1	-2.3
Cc1ccc(C)c(NC(=O)COc2coc(CN3CCc4ccccc4C3)cc2=O)c1	0.1
COc1ccc2nc(SCC(=O)Nc3ccc(S(=O)(=O)Nc4nccc(C)n4)cc3)[nH]c2c1	0.7
N#Cc1ccsc1NC(=O)CN1CCN(S(=O)(=O)c2ccc3ccccc3c2)CC1	-0.8
O=C(CCl)N(C/C=C/c1ccccc1)c1ccc2c(c1)OCCO2	-1.6
CCc1ccc(C(=O)N2CCN(c3ccc(NC(=O)c4cccnc4)cc3)CC2)cc1	0.1
O=C(NCCN1CCN(c2ccccc2)CC1)C1CCCN(S(=O)(=O)c2cnc[nH]2)C1 (configuration not stated)	0.8
S=c1nc(C2COc3ccccc3O2)[nH][nH]1 (configuration not stated)	-0.7
C=CCNC(=O)c1onc(CSc2ccc(F)cc2)c1C(=O)O	-1.4
Cc1ccc(-c2nc(CSCC(=O)Nc3cc(C)on3)c(C)o2)cc1	-0.1
CCCNS(=O)(=O)c1ccc(CCC(=O)NCC2CCCO2)cc1 (configuration not stated)	-2.2
O=c1ccc(-c2ccccc2)n[nH]1	-0.6
Cc1nn(CC(=O)c2ccccc2)c(=O)c2nn(-c3ccccc3F)c(C)c12	-0.8
O=C(NC1CCCC1)c1ccc(Cn2c(=O)[nH]c3ccsc3c2=O)cc1	-1.7

Of the compounds above, 3 have a CF3 group.
Structure	STK33 inh
Cc1ccc(C(=O)Nc2cccc(C(F)(F)F)c2)cc1NC(=O)c1nccnc1N	-0.5
CN(Cc1cccc(C(F)(F)F)c1)C(=O)C1CCC(=O)N(CC2CCCCC2)C1 (configuration not stated)	0.6
FC(F)(F)c1cccc(Cc2noc(CN3CCCCC3c3ccccn3)n2)c1 (configuration not stated)	0.3
